Source: PubChem BioAssay (Broad Institute)
NOMO-1 viab: STK33 inhibitor candidate reducing NOMO-1 cell viability; NOMO-1 AML viability, CellTiter-Glo luminescence, 72 h; inhibition, % (concentration not given with the values); actives 7.5% (n = 37,000);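 active = most replicates above 80%; inconclusive = exactly half above 80%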;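 note: wells of about 30 µL received 25 nL stock; 0% = median of vehicle wells and 100% = reference inhibitor level; the first replicate is given; inactives centre near 10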
The depositor's hits bear a star; ? = inconclusive.

SMILES	NOMO-1 viab
COc1cc(C2c3cc(O)c(OC)cc3CC(CO)C2CO[C@@H]2O[C@H](CO)[C@@H](O)[C@H](O)[C@H]2O)ccc1O (some centres not stated)	-6
COC(=O)c1cc(C(=O)NCc2ccccn2)cc([N+](=O)[O-])c1	-23
Cc1ccnc(SCC(=O)Nc2ccc(Br)cc2F)n1	12
C[C@H](CO)N1C[C@H](C)[C@@H](CN(C)C(=O)Nc2ccc3c(c2)OCO3)Oc2c(NC(=O)c3nc4ccccc4s3)cccc2C1=O	20
FC(F)(F)c1cc(-c2ccc3ccccc3c2)no1	88*
CNC[C@H]1Oc2ccc(NC(=O)CCCN(C)C)cc2C(=O)N([C@@H](C)CO)C[C@@H]1C	-2
COc1ccccc1-c1noc(CCC(=O)Nc2ccccc2C)n1	-2
COc1ccc(NC(=O)CSc2nnc(-c3cccs3)n2-c2ccc(F)cc2)cc1	35
Cc1cc(OCc2nc3ccccc3s2)ccc1NC(=O)c1cccc(F)c1	41
Cc1ccc(S(=O)(=O)N(C)C[C@H]2OCCCC[C@@H](C)Oc3ccc(N(C)C)cc3C(=O)N([C@H](C)CO)C[C@@H]2C)cc1	15
Cc1nc(-c2cc(C#N)c(SCCC(=O)OC(C)(C)C)nc2C)cs1	36
C[C@H]1CN([C@@H](C)CO)C(=O)c2cccc(NS(=O)(=O)c3ccc(F)cc3)c2O[C@H]1CN(C)C(=O)Nc1ccc(C(F)(F)F)cc1	15
O=C1c2ccccc2C(=O)C1c1cc(=O)[nH]c2c1ccc1ccccc12	12
CCOC(=O)c1c(NC(=O)CSc2nc3c(cc2C#N)CCCC3)sc2c1CCCC2	-23
CCOc1ccccc1NC(=O)c1c(NC(=O)CN2CCOCC2)sc2c1CCC2	1

The last 5 compounds of the part before are carried over, then new ones follow.
SMILES	NOMO-1 viab
Cc1nc(-c2cc(C#N)c(SCCC(=O)OC(C)(C)C)nc2C)cs1	36
C[C@H]1CN([C@@H](C)CO)C(=O)c2cccc(NS(=O)(=O)c3ccc(F)cc3)c2O[C@H]1CN(C)C(=O)Nc1ccc(C(F)(F)F)cc1	15
O=C1c2ccccc2C(=O)C1c1cc(=O)[nH]c2c1ccc1ccccc12	12
CCOC(=O)c1c(NC(=O)CSc2nc3c(cc2C#N)CCCC3)sc2c1CCCC2	-23
CCOc1ccccc1NC(=O)c1c(NC(=O)CN2CCOCC2)sc2c1CCC2	1
Cc1c(Br)c([N+](=O)[O-])nn1C(C)C(=O)NCc1cccnc1 (configuration not stated)	11
C[C@H](CO)N1C[C@H](C)[C@H](CN(C)C(=O)Nc2cccc3ccccc23)Oc2ccc(NC(=O)C3CCCCC3)cc2C1=O	15
COc1ccc(S(=O)(=O)N(C)C[C@H]2OCCCC[C@@H](C)Oc3ccc(NC(=O)NC4CCCCC4)cc3C(=O)N([C@H](C)CO)C[C@@H]2C)cc1	24
Cc1noc(C)c1NC(=O)N(C)C[C@H]1Oc2ccc(N(C)C)cc2C(=O)N([C@H](C)CO)C[C@H]1C	17
Cn1c(=O)[nH]c(=O)c2c1ncn2CCNCc1ccco1	-20
CCOC(=O)c1c(NC(C)=O)sc2c1CCCNC2=O	20
COc1ccc(NC(=O)Nc2ccc3c(c2)CC(=O)N([C@H](C)CO)C[C@H](C)[C@H](CN(C)S(=O)(=O)c2ccc(F)cc2)O3)cc1	126*
C[C@@H]1CN([C@H](C)CO)C(=O)c2cc(NC(=O)Nc3cccc4ccccc34)ccc2O[C@H]1CN(C)Cc1ccc(C(=O)Nc2ccccc2N)cc1	27
CCOC(=O)c1c(NC(=O)c2cc(-c3cccnc3)nc3c(C)cc(C)cc23)sc(C(C)=O)c1C	40
COc1ccccc1CC(=O)Nc1ccc(-c2noc(-c3ccccc3C)n2)cc1	-5
COc1cc(NC(=O)C(C)N2C(=O)C3CC=C(Cl)CC3C2=O)ccc1[N+](=O)[O-] (configuration not stated)	27
COc1cc(C)c(Cl)cc1S(=O)(=O)NCc1ccccn1	-2
O=S(=O)(c1ccc(Cl)cc1)n1cnc2ccccc21	12
Cc1noc(C)c1S(=O)(=O)N(C)C[C@H]1Oc2ccc(NC(=O)Nc3ccccc3)cc2CC(=O)N([C@@H](C)CO)C[C@@H]1C	29
Cc1ccc(S(=O)(=O)N(C)C[C@@H]2Oc3ccc(N(C)C)cc3C(=O)N([C@@H](C)CO)C[C@H]2C)cc1	12
CNC[C@H]1Oc2ccc(NS(=O)(=O)c3cn(C)cn3)cc2C(=O)N([C@@H](C)CO)C[C@@H]1C	13
COc1ccc(C)cc1NC(=O)CSc1nnnn1-c1ccccc1	0
COc1cccc(NC(=O)COc2ccccc2C(=O)O)c1	-6
C[C@H](CO)N1C[C@H](C)[C@@H](CN(C)C(=O)NC2CCCCC2)Oc2ccc(NC(=O)C3CC3)cc2C1=O	14
CCn1c(SCC(=O)Nc2sc3c(c2C#N)CCCC3)nnc1-c1ccccc1O	-8
C[C@H](CO)N1C[C@H](C)[C@H](CN(C)S(=O)(=O)c2cccs2)Oc2c(NS(=O)(=O)c3cccs3)cccc2C1=O	29
C[C@@H]1CN([C@H](C)CO)C(=O)c2cccc(NC(=O)C3CCCCC3)c2O[C@H]1CN(C)Cc1ccc(Cl)c(Cl)c1	?
COc1ccc(S(=O)(=O)N(C)C[C@H]2Oc3c(NC(=O)CCCCCC(=O)Nc4ccccc4N)cccc3C(=O)N([C@@H](C)CO)C[C@@H]2C)cc1	48
C[C@H]1CN([C@@H](C)CO)C(=O)c2cc(NC(=O)Cn3cnnn3)ccc2O[C@H]1CN(C)Cc1ccc2c(c1)OCO2	-2
Cc1ccc(-n2c(C)nnc2SCC(=O)Nc2ccc(Cl)c(C(F)(F)F)c2)cc1	10
Cc1noc(C)c1NC(=O)Nc1ccc2c(c1)C(=O)N([C@H](C)CO)C[C@@H](C)[C@@H](CN(C)Cc1ccc3c(c1)OCO3)O2	10
Cc1ccc(S(=O)(=O)N(C)C[C@H]2Oc3c(NS(=O)(=O)c4cccs4)cccc3C(=O)N([C@H](C)CO)C[C@@H]2C)cc1	16
C[C@@H]1C[C@H]2[C@@H]3C[C@H](F)C4=CC(=O)C=C[C@]4(C)[C@@]3(Cl)[C@@H](O)C[C@]2(C)[C@H]1C(=O)COC(=O)C(C)(C)C	37
C[C@@H]1CN([C@@H](C)CO)C(=O)c2cccc(N(C)C)c2O[C@H]1CN(C)Cc1ccc(Oc2ccccc2)cc1	45
Cc1ccc(Cl)cc1N(CC(=O)Nc1ccc(C(N)=O)cc1)S(C)(=O)=O	16
Cc1ccc(S(=O)(=O)N(C)C[C@H]2Oc3ccc(NC(=O)Nc4ccc(F)cc4)cc3C(=O)N([C@H](C)CO)C[C@H]2C)cc1	28
O=C1NC(=O)C(c2ccccc2)N1 (configuration not stated)	-1
C[C@H]1CN([C@@H](C)CO)C(=O)c2cccc(NC(=O)Nc3cccc4ccccc34)c2O[C@@H]1CN(C)S(=O)(=O)c1cccs1	1
C[C@@H]1CN([C@@H](C)CO)C(=O)c2cc(NC(=O)NC3CCCCC3)ccc2O[C@@H]1CN(C)Cc1ccc(Cl)c(Cl)c1	22
C[C@@H]1CN([C@H](C)CO)C(=O)c2cccc(NC(=O)Nc3ccc4c(c3)OCO4)c2O[C@@H]1CN(C)S(C)(=O)=O	-12
C[C@@H]1CCCCO[C@H](CN(C)C(=O)CCCN(C)C)[C@@H](C)CN([C@H](C)CO)C(=O)c2cc(NC(=O)Cc3ccccc3)ccc2O1	-4
C[C@H](CO)N1C[C@H](C)[C@H](CN(C)Cc2ccc(C(F)(F)F)cc2)Oc2c(NS(=O)(=O)c3ccc(Cl)cc3)cccc2C1=O	52
CCc1cccc2c1NC(=O)C21OCCO1	11
C[C@H](CO)N1C[C@H](C)[C@H](CN(C)S(=O)(=O)c2ccc(Cl)cc2)Oc2ccc(NS(=O)(=O)c3ccc(Cl)cc3)cc2CC1=O	34
COCc1ccccc1Cn1cnc2ccccc21	46
O=C(O)[C@H]1O[C@@H](Oc2c(-c3ccccc3)cc(O)c(-c3ccccc3)c2O)[C@H](O)[C@@H](O)[C@@H]1O	8
COc1ccc(NC(=O)N(C)C[C@@H]2Oc3c(NC(=O)Nc4cccc5ccccc45)cccc3C(=O)N([C@H](C)CO)C[C@@H]2C)cc1	38
C[C@@H]1CN([C@@H](C)CO)C(=O)c2cc(NC(=O)Nc3ccc(C(F)(F)F)cc3)ccc2O[C@H]1CN(C)Cc1ccncc1	42
Cc1ccc(S(=O)(=O)NCC(=O)Nc2cccc(Cl)c2)cc1	-6
C[C@@H]1CN([C@H](C)CO)C(=O)Cc2cc(NS(C)(=O)=O)ccc2O[C@@H]1CN(C)Cc1ccc(C(=O)Nc2ccccc2N)cc1	36
COc1ccc(NC(=O)Nc2ccc3c(c2)C(=O)N([C@@H](C)CO)C[C@@H](C)[C@H](CN(C)C(=O)Nc2ccccc2)O3)cc1	38
C[C@H]1CN([C@@H](C)CO)C(=O)c2cc(NS(=O)(=O)c3ccc(Cl)cc3)ccc2O[C@@H]1CN(C)S(=O)(=O)c1cn(C)cn1	2
CC(C(=O)Nc1nccs1)C1SC(=O)NC1=O (configuration not stated)	5
Cc1cc(NS(=O)(=O)c2cccc([N+](=O)[O-])c2)no1	43
C[C@H]1CN([C@@H](C)CO)C(=O)c2cccc(NC(=O)C3CC3)c2O[C@@H]1CN(C)C(=O)NC1CCCCC1	18
COC(=O)c1ccccc1NC(=O)CSc1nc(-c2ccc(F)cc2)cs1	15
COc1ccc(S(=O)(=O)Nc2cccc3c2O[C@@H](CN(C)C(=O)Nc2c(C)noc2C)[C@@H](C)CN([C@H](C)CO)C3=O)cc1	14
O=C(CSc1nc2sc3c(c2c(=O)n1Cc1ccco1)CCC3)c1cc(Cl)sc1Cl	58
COc1ccc2nc3c(nc2c1)C(=O)c1ccccc1C3=O	29
C[C@H](CO)N1C[C@H](C)[C@H](CN(C)C(=O)Nc2ccc3c(c2)OCO3)Oc2c(NC(=O)C3CCOCC3)cccc2C1=O	5
COc1ccc(S(=O)(=O)Nc2cccc3c2O[C@@H](CN(C)S(=O)(=O)c2ccc(F)cc2)[C@H](C)CN([C@@H](C)CO)C3=O)cc1	68
O=c1cc(CSc2nnnn2-c2ccccc2)nc2nc[nH]n12	-7
CC(C)NC(=O)N(C)C[C@H]1Oc2c(NC(=O)C3CCCCC3)cccc2C(=O)N([C@H](C)CO)C[C@@H]1C	11
Cc1noc(C)c1S(=O)(=O)Nc1ccc2c(c1)CC(=O)N([C@H](C)CO)C[C@@H](C)[C@H](CN(C)CC1CCCCC1)O2	18
COc1ccc(NC(=S)NCCc2ccccc2OC)c(OC)c1	11

Part of the list above, as comma-separated lines.
SMILES,NOMO-1 viab
Cc1ccnc(SCC(=O)Nc2ccc(Br)cc2F)n1,12
C[C@H](CO)N1C[C@H](C)[C@@H](CN(C)C(=O)Nc2ccc3c(c2)OCO3)Oc2c(NC(=O)c3nc4ccccc4s3)cccc2C1=O,20
FC(F)(F)c1cc(-c2ccc3ccccc3c2)no1,88*

(further entries)
SMILES	NOMO-1 viab
C[C@H]1CN([C@@H](C)CO)C(=O)Cc2cc(NC(=O)Cc3ccccc3)ccc2O[C@@H]1CN(C)CC1CCCCC1	24
NS(=O)(=O)c1ccc(CNC(=O)c2cc(-c3ccccn3)nc3ccc(Cl)cc23)cc1	35
C[C@@H]1CN([C@@H](C)CO)C(=O)Cc2cc(NC(=O)Cc3ccccc3)ccc2O[C@@H]1CN(C)S(=O)(=O)c1ccccc1	-8
Cc1noc(C)c1S(=O)(=O)N(C)C[C@H]1Oc2ccc(NC(=O)Nc3ccc(C(F)(F)F)cc3)cc2CC(=O)N([C@H](C)CO)C[C@H]1C	44
C[C@H]1CN([C@@H](C)CO)C(=O)c2cc(NC(=O)Nc3ccc(F)cc3)ccc2O[C@H]1CN(C)C(=O)Nc1ccc2c(c1)OCO2	-2
C[C@H]1CN([C@@H](C)CO)C(=O)c2cccc(NC(=O)Nc3ccc(C(F)(F)F)cc3)c2O[C@@H]1CN(C)Cc1ccncc1	19
Cc1[nH]c2ccccc2c1C(=O)CSc1nc(-c2ccccc2)cs1	-13
CC(C)(C)NC(=O)CC(c1ccccc1)c1ccccc1	28
Cc1cc(Cl)cc(Cl)c1OCC(=O)Nc1ccc(Cl)c(-c2nc3ncccc3o2)c1	25
COc1ccc(C(=O)CCC(=O)Nc2cccnc2)c(OC)c1	2
C[C@@H]1CN([C@H](C)CO)C(=O)c2cccc(NS(C)(=O)=O)c2O[C@@H]1CN(C)C(=O)Nc1ccc(C(F)(F)F)cc1	25
COc1ccc(NC(=O)Nc2cccc3c2O[C@@H](CN(C)S(C)(=O)=O)[C@H](C)CN([C@H](C)CO)C3=O)cc1	1
O=C(CCN1C(=O)C2C3C=CC(C3)C2C1=O)Oc1cccc2cccnc12 (configuration not stated)	113*
Cc1cc(N(CC(=O)Nc2ccccc2-c2ccccc2)S(C)(=O)=O)ccc1Br	48
c1ccc2sc(SCc3nc4c5c6c(sc5ncn4n3)CCCC6)nc2c1	27

2 records drawn at random from those above, as already listed:
SMILES	NOMO-1 viab
COc1ccc(NC(=O)Nc2cccc3c2O[C@@H](CN(C)S(C)(=O)=O)[C@H](C)CN([C@H](C)CO)C3=O)cc1	1
Cc1[nH]c2ccccc2c1C(=O)CSc1nc(-c2ccccc2)cs1	-13

(more compounds)
SMILES	NOMO-1 viab
C[C@@H]1CN([C@@H](C)CO)C(=O)c2cccc(NC(=O)Nc3ccc(F)cc3)c2O[C@@H]1CN(C)S(=O)(=O)c1ccccc1	71
Cc1ccc(S(=O)(=O)N(C)C[C@@H]2Oc3ccc(NS(=O)(=O)c4cn(C)cn4)cc3C(=O)N([C@@H](C)CO)C[C@H]2C)cc1	-5
C=C1CCC2C(C(=O)O)=COC(O[C@@H]3O[C@H](CO)[C@@H](O)[C@H](O)[C@H]3O)C12 (some centres not stated)	3
COc1ccc(CN(C)C[C@H]2Oc3ccc(NC(=O)Nc4ccccc4)cc3C(=O)N([C@@H](C)CO)C[C@@H]2C)cc1	0
Nc1ncnc(NCc2cccnc2)c1[N+](=O)[O-]	4
COc1ccc(NC(=O)Nc2ccc3c(c2)CC(=O)N([C@H](C)CO)C[C@@H](C)[C@H](CN(C)C(=O)Nc2ccc(C(F)(F)F)cc2)O3)cc1	42

These rows are one share of the data (hit frequency here may not be typical).
